Screens deposited in PubChem BioAssay by ICCB-Longwood Screening Facility, Harvard Medical School.
Mtb MbtI inh: MbtI salicylate synthase inhibition; P9WFX0; purified MbtI enzyme, fluorescence intensity read-out; inhibition, %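 (about 17 µg/mL by stock and volumes)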; 100,000 compounds, 0.89% hits; AID 493033;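 active = above 50% in both replicates, above 80% if mildly self-fluorescent; inactive = the rest, strongly fluorescent compounds included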;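 also: 0% = mean of negative and 100% = mean of positive controls; one replicate is shown; some compounds called inactive have numbers as strong as hits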
Polio RdRp inh: inhibitors of poliovirus RNA polymerase binding and polymerization; poliovirus polymerase elongation, fluorescence polarization; hits give low values; % elongation, % (compound at 16.7 µg/mL); 150,000 compounds, 0.66% hits; AID 588519; in the data active = % elongation below about 90%; also: some results filed as inactive read as strong as hits
Target sequence (P03300 1749-2209 limits assumed): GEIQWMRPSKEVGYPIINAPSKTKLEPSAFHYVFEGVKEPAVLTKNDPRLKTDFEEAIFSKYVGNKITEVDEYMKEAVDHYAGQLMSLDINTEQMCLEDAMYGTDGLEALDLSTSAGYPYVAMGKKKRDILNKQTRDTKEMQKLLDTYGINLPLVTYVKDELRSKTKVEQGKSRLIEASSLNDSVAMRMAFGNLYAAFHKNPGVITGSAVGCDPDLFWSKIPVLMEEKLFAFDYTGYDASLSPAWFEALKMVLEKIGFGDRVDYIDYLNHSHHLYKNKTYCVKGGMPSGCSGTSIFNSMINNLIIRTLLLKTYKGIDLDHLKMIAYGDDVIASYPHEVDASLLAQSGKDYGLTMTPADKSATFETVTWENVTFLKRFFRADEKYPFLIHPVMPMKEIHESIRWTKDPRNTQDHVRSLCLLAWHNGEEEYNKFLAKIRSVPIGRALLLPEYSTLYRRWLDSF
Mtb MenB inh: Mtb MenB enzyme inhibition | P9WNP5 | MenB enzyme assay, absorbance read-out; some hits fall short of the stated cut | inhibition, %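 (about 12 µg/mL by stock and volumes)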 | 100,000 compounds, 0.43% hits | AID 540299;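 active = mean of two replicates above 30%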;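 also: 0% = no compound and 100% = wells with inactive enzyme; the first replicate is given; strong numbers were not always called active; inactives centre near -10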
Target sequence (P9WNP5 whole entry, looked up): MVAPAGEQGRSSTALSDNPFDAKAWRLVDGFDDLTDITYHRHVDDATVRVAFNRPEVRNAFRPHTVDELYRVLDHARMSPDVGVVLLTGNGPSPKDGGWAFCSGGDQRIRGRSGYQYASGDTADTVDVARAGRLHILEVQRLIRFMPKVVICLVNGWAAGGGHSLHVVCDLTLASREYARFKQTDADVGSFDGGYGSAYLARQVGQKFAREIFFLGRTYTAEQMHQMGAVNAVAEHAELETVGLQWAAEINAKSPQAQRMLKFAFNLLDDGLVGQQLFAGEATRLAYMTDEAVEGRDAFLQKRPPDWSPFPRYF
Polio RdRp inh intensity: second read-out of Polio RdRp inh, no call of its own (marks repeat the call); % elongation; measured here: total intensity read-out; formula for this scale not given here;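 total fluorescence in place of polarization; lower means less elongation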
Active calls of the source: *; . = not tested or not shown; & = joins results of further samples.

[1] NC(=O)c1cc(NS(=O)(=O)/C=C/c2ccccc2)cc(C(N)=O)c1
[2] NC(=O)c1sc2nc3c(cc2c1N)CCCCC3
[3] O=C(CC=Nc1ccccc1)c1ccccc1
[4] Cc1ccc(S(=O)(=O)N(CC(=O)NC2CCCCC2)Cc2ccco2)cc1C
[5] CC(C)CCNC(=O)c1ccc(N(C)S(C)(=O)=O)cc1
[6] Cc1cc2cc(CNC(=O)CCC3CCCCC3)ccc2n1C

Compound,1,2,3,4,5,6
Polio RdRp inh intensity,100,103,104,109,100,100
Mtb MenB inh,-12,32,-33,12,-14,-26
Mtb MbtI inh,27,-149,-13,-12,2,-12
Polio RdRp inh,98,101,103,106,97,103

At a glance, some entries already given:
[3] O=C(CC=Nc1ccccc1)c1ccccc1
[4] Cc1ccc(S(=O)(=O)N(CC(=O)NC2CCCCC2)Cc2ccco2)cc1C
[5] CC(C)CCNC(=O)c1ccc(N(C)S(C)(=O)=O)cc1
[6] Cc1cc2cc(CNC(=O)CCC3CCCCC3)ccc2n1C

Compound,3,4,5,6
Polio RdRp inh intensity,104,109,100,100
Mtb MenB inh,-33,12,-14,-26
Mtb MbtI inh,-13,-12,2,-12
Polio RdRp inh,103,106,97,103

Just Mtb MbtI inh, Mtb MenB inh and Polio RdRp inh, for some of the entries so far:
entry | SMILES | Mtb MbtI inh | Mtb MenB inh | Polio RdRp inh
2 | NC(=O)c1sc2nc3c(cc2c1N)CCCCC3 | -149 | 32 | 101
3 | O=C(CC=Nc1ccccc1)c1ccccc1 | -13 | -33 | 103
4 | Cc1ccc(S(=O)(=O)N(CC(=O)NC2CCCCC2)Cc2ccco2)cc1C | -12 | 12 | 106
5 | CC(C)CCNC(=O)c1ccc(N(C)S(C)(=O)=O)cc1 | 2 | -14 | 97
6 | Cc1cc2cc(CNC(=O)CCC3CCCCC3)ccc2n1C | -12 | -26 | 103

(list continues)
[7] O=C(NCc1ccc(-c2nc3ncccc3o2)cc1)c1ccc(Cl)cc1
[8] Cc1ccc(Nc2nn(CCC(=O)O)c(=S)n2-c2ccc(C)cc2)cc1
[9] O=C(C1CN(CC(=O)N2CCNC2=O)c2ccccc2O1)N1CCOCC1 (configuration not stated)
[10] Cc1[nH]n(-c2cccc(Cl)c2)c(=O)c1C=NC1CCS(=O)(=O)C1 (configuration not stated)
[11] CC(C)CN(CC(C)C)C(=O)NCc1noc2ccccc12
[12] COc1cccc(-n2c(SCC(=O)NC3CCCC3)nc3c(c2=O)SCC3)c1

Compound,7,8,9,10,11,12
Polio RdRp inh intensity,100,101,104,101,102,101
Mtb MenB inh,13,-16,-6,-33,-12,8
Mtb MbtI inh,28,-8,9,24,-9,14
Polio RdRp inh,102,101,103,98,102,100

[13] O=C(O)c1c(CNC2CCCc3ccccc32)c2ccccc2n1Cc1ccc(F)cc1Cl (configuration not stated)
[14] CC1CC(C)CN(C(=O)c2cc3c(s2)CCCC3)C1 (configuration not stated)
[15] O=C(CSc1nccn1-c1ccccc1)NO
[16] CC(=O)Nc1ccc(-c2nnc3n(Cc4ccccc4Cl)c(=O)c4ccccc4n23)cc1
[17] Cc1nnc(SCC(=O)N2CCCCC2)o1
[18] CC1CCN(C(=O)c2scc3c2CCCC3)CC1

Compound,13,14,15,16,17,18
Polio RdRp inh intensity,97,101,101,99,101,109
Mtb MenB inh,-16,.,19,-12,-18,-16
Mtb MbtI inh,-2,-8,2,-10,2,.
Polio RdRp inh,95,103,97,102,99,105

[19] COc1ccc(C(=O)Nc2ccc(Cl)cc2)cc1S(=O)(=O)Nc1ccc(Cl)cc1
[20] Cc1ccc(SCC(=O)NC2CCCCC2C)cc1 (configuration not stated)
[21] Cc1cc(-c2nnc(-c3cccc(Cl)c3)o2)no1
[22] CCC1(C)NC(=O)N(/N=C/c2cc(C)n(CC(C)C)c2C)C1=O (configuration not stated)
[23] c1ccc(C(NCc2cccs2)c2ccccc2)cc1
[24] CCCN(CCC)C(=O)Cn1c(=O)n(CCCCC(=O)Nc2ccc(OC)cc2)c(=O)c2ccccc21

Compound,19,20,21,22,23,24
Polio RdRp inh intensity,109,102,98,98,102,100
Mtb MenB inh,-24,-10,7,1,5,1
Mtb MbtI inh,.,-12,2,22,.,-4
Polio RdRp inh,102,103,99,105,100,101

[25] O=c1cc(-c2ccccc2)nc(SCc2ccccn2)[nH]1
[26] C[C@@H](O)[C@H]1C(=O)N2C(C(=O)O)=C(SCCN=CN)C[C@H]12
[27] N#CCCN/N=C/c1ccncc1
[28] O=C(OC(C(=O)c1ccccc1)c1ccccc1)c1cnc(Cl)c(Cl)c1 (configuration not stated)
[29] CCCOc1ccc(NC(=O)CC2SC(N)=NC2=O)cc1 (configuration not stated)
[30] COc1ccccc1-c1c(C)c(CC(C)C)nc(N)c1C#N

Compound,25,26,27,28,29,30
Polio RdRp inh intensity,103,100,93,103,102,103
Mtb MenB inh,-1,-4,-22,.,-10,13
Mtb MbtI inh,-1,-5,58,-7,-4,86
Polio RdRp inh,102,99,92,101,104,98

[31] CC(=O)N(Cc1ccc2c(c1)OCO2)C1CC(=O)N(c2ccccc2)C1=O (configuration not stated)
[32] Cn1c(SCc2ccccc2C#N)nnc1C(F)(F)F
[33] CC1c2cccn2CCN1C(=O)Nc1ccccc1 (configuration not stated)
[34] CC(Oc1ccc(Cl)cc1)C(=O)OCC(=O)Nc1ccc(F)cc1F (configuration not stated)
[35] CC1CCCCN1C(=O)C1=CC(c2ccco2)=NS(=O)(=O)N1C (configuration not stated)
[36] Cc1cc(C)c2c(=O)[nH]c(SCC(=O)NC34CC5CC(CC(C5)C3)C4)nc2n1

Compound,31,32,33,34,35,36
Polio RdRp inh intensity,103,103,97,104,103,.
Mtb MenB inh,-13,-5,18,.,-6,1
Mtb MbtI inh,-14,0,12,-8,7,17
Polio RdRp inh,100,100,102,101,99,.

[37] CSc1ncc(Cl)c(C(=O)Nc2ccc(C)cc2)n1
[38] N#CC(C(=O)CC12CC3CC(CC(C3)C1)C2)c1nc2ccccc2[nH]1 (configuration not stated)
[39] CCOC(=O)C1C(=O)Nc2nc3ccccc3n2C1C(C)C (configuration not stated)
[40] c1ccc(-c2nc(SCC3COc4ccccc4O3)oc2-c2ccccc2)cc1 (configuration not stated)
[41] O=c1c2ccccc2c(C=NCCCn2ccnc2)c(O)n1-c1ccccn1
[42] COc1cc(NC(=O)Cn2cnc3ccc(S(=O)(=O)N4CCC(C)CC4)cc3c2=O)cc(OC)c1OC

Compound,37,38,39,40,41,42
Polio RdRp inh intensity,107,104,103,103,108,103
Mtb MenB inh,.,-1,-20,-7,-42,-3
Mtb MbtI inh,-7,-15,15,.,-10,-8
Polio RdRp inh,103,108,102,109,103,103

[43] O=C(COC(=O)Cn1[nH]c(=O)c2ccccc2c1=O)Nc1ccc2c(c1)OCO2
[44] CC(C)CC(NC1CCS(=O)(=O)C1)C(=O)O (configuration not stated)
[45] Cc1cc(C)n2cc(CN(C)Cc3ccccc3)nc2n1
[46] CCc1cccc(NC(=O)Cn2c(C(=O)OC)cc3ccsc32)c1
[47] CCCn1c(=O)c2c(nc3oc(-c4ccccc4)cn32)n(C)c1=O
[48] CC1(C)CC(=O)C/C(=N\NC(=O)CCc2ccccc2)C1

Compound,43,44,45,46,47,48
Polio RdRp inh intensity,104,101,108,98,109,101
Mtb MenB inh,-20,7,0,3,-2,-14
Mtb MbtI inh,-17,-3,102,-7,1,4
Polio RdRp inh,100,100,107,102,107,101

[49] Clc1ccccc1OCCn1cnc2ccccc21
[50] Cc1ccc(NC(=O)CCc2nnc3ccc(N4CCN(C5CCCCC5)CC4)nn23)cc1C
[51] CC(C)c1ccc(CN2C(=O)c3ccccc3C2=O)cc1
[52] COC(=O)c1ccc(NC(=S)NC(=O)N2CCOCC2)cc1
[53] O=C(/C=C/c1ccc2ccccc2n1)N1CCN(c2ccccc2)CC1
[54] c1cc2nsnc2c2c1Nc1nc3nonc3nc1N2

Compound,49,50,51,52,53,54
Polio RdRp inh intensity,102,96,117,113,113,103
Mtb MenB inh,-29,-20,-28,-5,-10,-45
Mtb MbtI inh,-15,-6,-8,.,2,7
Polio RdRp inh,100,101,115,107,103,97

[55] Cc1cccc(-c2nc3n(n2)C(=O)CC(c2ccc(F)cc2)S3)c1 (configuration not stated)
[56] Cc1ccc(C(=O)C2CC2)cc1
[57] CC1CCC2(CC1)c1cnn(C(C)C)c1N=C(c1ccc(F)cc1)N2C (configuration not stated)
[58] Cc1ccc2onc(CNC(=O)N(C)C3CCCCC3)c2c1
[59] O=c1c2cc(-c3ccccc3)sc2ncn1/N=C/c1cccs1
[60] Cc1onc(-c2ccccc2)c1C(=O)/C=C/N(C)C

Compound,55,56,57,58,59,60
Polio RdRp inh intensity,99,104,106,102,108,100
Mtb MenB inh,9,2,-9,-1,15,-12
Mtb MbtI inh,8,-7,-2,-12,-6,14
Polio RdRp inh,103,105,101,101,106,104

4 of the compounds above, as labelled records.
56	Cc1ccc(C(=O)C2CC2)cc1
  Polio RdRp inh intensity: 104
  Mtb MenB inh: 2
  Mtb MbtI inh: -7
  Polio RdRp inh: 105

57	CC1CCC2(CC1)c1cnn(C(C)C)c1N=C(c1ccc(F)cc1)N2C (configuration not stated)
  Polio RdRp inh intensity: 106
  Mtb MenB inh: -9
  Mtb MbtI inh: -2
  Polio RdRp inh: 101

58	Cc1ccc2onc(CNC(=O)N(C)C3CCCCC3)c2c1
  Polio RdRp inh intensity: 102
  Mtb MenB inh: -1
  Mtb MbtI inh: -12
  Polio RdRp inh: 101

59	O=c1c2cc(-c3ccccc3)sc2ncn1/N=C/c1cccs1
  Polio RdRp inh intensity: 108
  Mtb MenB inh: 15
  Mtb MbtI inh: -6
  Polio RdRp inh: 106

Further compounds:
[61] COc1ccc(OC)c(-c2csc(NC(=O)C3=NN(C)C(=O)CC3)n2)c1
[62] CC1(C)C2CC=C(C3N=C(N)Nc4nc5ccccc5n43)C1C2 (configuration not stated)
[63] Brc1ccccc1NC1=NCCC1
[64] Brc1cc(I)ccn1
[65] C=CCN(CC=C)C(=O)CSc1nnc2c3ccccc3n(C)c2n1
[66] COCc1cc(C)n(CC(=O)Nc2cc(Cl)ccc2OC)c(=O)c1C#N

Compound,61,62,63,64,65,66
Polio RdRp inh intensity,95,110,112,102,101,104
Mtb MenB inh,-17,-12,-1,-6,-4,4
Mtb MbtI inh,-37,0,-2,-4,3,-10
Polio RdRp inh,98,99,103,102,99,104

[67] Cc1sc(NC(=O)C2=NNC(=O)CC2)nc1-c1ccc(F)cc1
[68] S=c1[nH]ncn1-c1ccccc1
[69] C=CCON1C(=O)C2C3C=CC(O3)C2C1=O (configuration not stated)
[70] Cc1cc(Cl)nc(C)n1
[71] CC(C)=CCC(O)C1=CC(=O)c2c(O)ccc(O)c2C1=O (configuration not stated)
[72] COC(=O)c1ccc(CNC(=O)CNc2cc(C(F)(F)F)ccc2N2CCOCC2)cc1

Compound,67,68,69,70,71,72
Polio RdRp inh intensity,104,103,98,100,98,106
Mtb MenB inh,-18,-40&-18,-10,-22,-18,-12
Mtb MbtI inh,2,8&45,.,0,.,-52
Polio RdRp inh,106,99,102,101,100,101

[73] COC(=O)CSc1nc2c(cnn2-c2ccccc2)c(=O)[nH]1
[74] COc1ccc(OCc2nnc(SCC(=O)N(C)c3ccccc3)n2Cc2ccco2)cc1
[75] CCCCC(=O)n1c(=O)oc2ccc(C)cc21
[76] O=C(NCc1ccc(Cl)cc1)C1(NS(=O)(=O)c2cccc3cccnc23)CCCCC1
[77] CC1=CC(c2ccccc2)=C(C#N)C(=S)C1CC(=O)c1cccs1 (configuration not stated)
[78] COc1cc(N)c(C#N)cc1OC

Compound,73,74,75,76,77,78
Polio RdRp inh intensity,103,106,106,104,86*,106
Mtb MenB inh,-20,-18,-14,4,-17,-10
Mtb MbtI inh,52,6,-11,2,.,-4
Polio RdRp inh,98,106,101,101,85*,104

[79] O=C(CSc1ncnc2ccccc12)N1CCOCC1
[80] Cc1nnc(NC(=O)Cc2n[nH]c(=O)c3ccccc23)s1
[81] CCOC(=O)/C(C#N)=C(/N)c1cc2cccc(OC)c2oc1=O
[82] O=C(c1ccccc1C(=O)N1CCCCC1)N1CCCCC1
[83] N#Cc1ccc(C(CO)CO)nc1
[84] CCCNC(=O)N1CCc2cc(OC)c(OC)cc2C1c1cc2cc3c(cc2[nH]c1=O)OCO3 (configuration not stated)

Compound,79,80,81,82,83,84
Polio RdRp inh intensity,107,108,118,105,101,103
Mtb MenB inh,-17,-19,-19,-6,-6,-140
Mtb MbtI inh,0,-2,.,.,-7,16
Polio RdRp inh,97,104,113,107,100,104

[85] O=c1c2ccccc2n2c(=S)[nH]nc2n1-c1ccccc1
[86] Cc1cc(C(=O)COC(=O)[C@@H]2CCCN2C(=O)c2cccs2)c(C)n1Cc1ccco1
[87] O=C(CCN1CCCCC1)Nc1ccc(Cl)cc1
[88] Cn1nnc(N2C(=O)C(O)=C(C(=O)c3ccco3)C2c2ccccc2)n1 (configuration not stated)
[89] Cn1c(=O)cc(SCC(=O)N2CCCC2)c2ccccc21
[90] CC(C)(C)C1CCc2onc(C(=O)Nc3ccccc3C(F)(F)F)c2C1 (configuration not stated)
[91] O=C(N=Nc1c(O)[nH]c(=O)[nH]c1=O)c1ccccn1
[92] COc1ccc(C2=Nc3ccccc3C2=O)cc1

Compound,85,86,87,88,89,90,91,92
Polio RdRp inh intensity,88*,102,109,111,105,104,101,106
Mtb MenB inh,-26,-24,-5,3,-16,-6,-44,.
Mtb MbtI inh,94*,9,.,.,-35,-8,17,38
Polio RdRp inh,89*,102,109,106,104,104,101,102
